KCNQ2 inh – KCNQ2 channel blockers in CHO-K1 cells – cell-based, FluxOR thallium flux, B-score, primary screen (AID 2156). O88943. 20 min; hits give low values; only compounds with negative scores are shown here; some inactives read as strong as hits. B-score at 10 µM. 310,000 compounds, 1.1% hits;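 active means fluorescence ratio B-score at most minus 3 library SDs, with starting brightness B-score within 2 library SDs, cut at about -5.5 in these data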
Target sequence (O88943 whole entry, looked up): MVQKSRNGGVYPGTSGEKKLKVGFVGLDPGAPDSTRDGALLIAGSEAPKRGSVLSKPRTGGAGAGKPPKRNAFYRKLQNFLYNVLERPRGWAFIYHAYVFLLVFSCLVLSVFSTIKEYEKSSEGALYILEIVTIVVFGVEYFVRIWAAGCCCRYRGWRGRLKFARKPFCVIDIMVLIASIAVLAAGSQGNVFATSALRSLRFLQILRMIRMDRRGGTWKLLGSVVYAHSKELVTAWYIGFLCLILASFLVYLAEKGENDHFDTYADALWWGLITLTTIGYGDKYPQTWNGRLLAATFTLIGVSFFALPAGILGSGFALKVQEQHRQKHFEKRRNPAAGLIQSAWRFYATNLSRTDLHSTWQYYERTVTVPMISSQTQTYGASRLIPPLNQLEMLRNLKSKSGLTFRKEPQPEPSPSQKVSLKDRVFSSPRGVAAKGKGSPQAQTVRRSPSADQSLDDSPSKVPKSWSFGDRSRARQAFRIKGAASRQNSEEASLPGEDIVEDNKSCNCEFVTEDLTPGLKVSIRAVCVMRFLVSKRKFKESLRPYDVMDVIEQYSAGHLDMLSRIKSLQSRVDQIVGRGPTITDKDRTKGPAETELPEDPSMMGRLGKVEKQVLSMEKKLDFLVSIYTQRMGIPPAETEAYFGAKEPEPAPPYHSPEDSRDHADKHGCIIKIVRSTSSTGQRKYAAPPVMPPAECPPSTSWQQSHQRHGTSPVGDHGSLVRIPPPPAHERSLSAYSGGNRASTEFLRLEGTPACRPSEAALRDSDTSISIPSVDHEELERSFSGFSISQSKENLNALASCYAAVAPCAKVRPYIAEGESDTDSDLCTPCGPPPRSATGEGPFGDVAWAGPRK
KCNQ2 inh baseline – further read-out of KCNQ2 inh, marked with its call; B-score; measured here: initial fluorescence intensity artifact check;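 brightness before thallium and not channel activity; 0 = typical well and far values either way flag optical interference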
An asterisk follows results filed as active; i = inactive. This is a subset; rates above refer to the full screens.

SMILES | KCNQ2 inh | KCNQ2 inh baseline
CCN(CC)CCCNC(=O)c1cc(Sc2nnc(C)s2)nc2ccccc12 | i | 3.5
CCCC(=O)Nc1cc(=O)[nH]c2ncnn12 | i | -0.24
O=C(/C=C/c1ccccc1Cl)NCCc1ccccc1 | i | 0.03
O=C(Cc1ccc(F)cc1)N1CCC(CC2CC(c3ccc(Cl)cc3)=NO2)(C(=O)NCC2CCCCC2)CC1 (stereo not given) | i | -2
O=C(CSc1nnc(-c2ccccc2)o1)Nc1ccccc1F | i | 0.48
O=C(CCc1ccc(S(=O)(=O)N2CCOCC2)cc1)Nc1ccc2c(c1)OCCO2 | i | -0.48
CCOC(=O)c1c(C)nc2c(c1-c1ccccc1)C(=O)c1ccccc1-2 | -12* | -0.89*
CCOC(=O)C(C)Oc1ccc(NC(=O)C(Cl)(Cl)Cl)cc1 (stereo not given) | i | 0.79
COc1ccc(CCNC(=O)C2CCN(S(=O)(=O)N3CCCCCC3)CC2)cc1OC | i | 3.9
CC(C)c1ccc(C2C3=C(COC3=O)Nc3cc4c(cc32)OCO4)cc1 (stereo not given) | i | 0.24
CCOc1ccccc1NC(=O)C(OC(=O)c1cc(C)oc1C)c1ccccc1 (stereo not given) | -5.8* | -0.11*
Cc1cccc(N(C(=O)c2snc(C(N)=O)c2N)C(C(=O)NCC2CCCO2)c2ccc(N(C)C)cc2)c1C (stereo not given) | i | -1.1
Cc1ccc(NC2CCCN(C(=O)C3CCCCC3)C2)cc1C (stereo not given) | i | 0.49
CCOC(=O)c1ccc(NC(=O)CN2C(=O)NC3(CCC(C)CC3)C2=O)cc1 (stereo not given) | i | 0.28
CCn1c2ccccc2c2cc(NC(=O)c3cc(C)on3)ccc21 | i | -1.1
Cc1ccc(CN(C)C(=O)C2CCC(=O)N(CC3CCCCC3)C2)o1 (stereo not given) | i | -0.44
COC(=O)C1=C(C)N(c2ccc(Cl)c(Cl)c2)C(=O)C1 | i | -0.8
COc1ccccc1NC(=S)NCCSc1ccc(Cl)cc1 | i | 0.75
Cc1ccc(C(=O)Nc2ccc3c(c2)OCCO3)cc1 | i | 0.4
O=C(CCC1N=C2c3ccccc3N=C(SCc3ccc(Cl)cc3)N2C1=O)NCc1ccco1 (stereo not given) | i | 0.02
COc1ccc(OC)c(NC(=O)COC(=O)CN(C)S(=O)(=O)c2ccc(C)cc2)c1 | i | 0.05
N#Cc1ccccc1Cn1c(=O)n(CCCC(=O)NCc2ccc3c(c2)OCO3)c(=O)c2ccccc21 | i | -0.01
O=C(O)c1ccc(-n2[nH]c3c(c2=O)CCCC3)cc1 | i | 1.1
S=C(NC1CCCC1)N1CCOCC1 | i | -1.9
COc1ccccc1Oc1ccc(N/C=C/C(=O)C(C)(C)C)cc1 | i | 0.85

A different layout for part of the listing above.
KCNQ2 inh | KCNQ2 inh baseline | compound
i | -1.1 | Cc1cccc(N(C(=O)c2snc(C(N)=O)c2N)C(C(=O)NCC2CCCO2)c2ccc(N(C)C)cc2)c1C (stereo not given)
i | 0.49 | Cc1ccc(NC2CCCN(C(=O)C3CCCCC3)C2)cc1C (stereo not given)
i | 0.28 | CCOC(=O)c1ccc(NC(=O)CN2C(=O)NC3(CCC(C)CC3)C2=O)cc1 (stereo not given)
i | -1.1 | CCn1c2ccccc2c2cc(NC(=O)c3cc(C)on3)ccc21
i | -0.44 | Cc1ccc(CN(C)C(=O)C2CCC(=O)N(CC3CCCCC3)C2)o1 (stereo not given)
i | -0.8 | COC(=O)C1=C(C)N(c2ccc(Cl)c(Cl)c2)C(=O)C1
i | 0.75 | COc1ccccc1NC(=S)NCCSc1ccc(Cl)cc1
i | 0.4 | Cc1ccc(C(=O)Nc2ccc3c(c2)OCCO3)cc1
i | 0.02 | O=C(CCC1N=C2c3ccccc3N=C(SCc3ccc(Cl)cc3)N2C1=O)NCc1ccco1 (stereo not given)
i | 0.05 | COc1ccc(OC)c(NC(=O)COC(=O)CN(C)S(=O)(=O)c2ccc(C)cc2)c1
i | -0.01 | N#Cc1ccccc1Cn1c(=O)n(CCCC(=O)NCc2ccc3c(c2)OCO3)c(=O)c2ccccc21
i | 1.1 | O=C(O)c1ccc(-n2[nH]c3c(c2=O)CCCC3)cc1
i | -1.9 | S=C(NC1CCCC1)N1CCOCC1
i | 0.85 | COc1ccccc1Oc1ccc(N/C=C/C(=O)C(C)(C)C)cc1

Next entries follow:
SMILES | KCNQ2 inh | KCNQ2 inh baseline
CC(=O)Oc1ccc(C(=O)Nc2ccccc2C(=O)Nc2cccc(C(=O)O)c2)cc1 | i | 2
Cc1ccc([N+](=O)[O-])c(C(=O)Nc2cccnc2Cl)c1 | i | 1.8
CC(C)c1nnc(NC(=O)COC(=O)/C=C/c2ccc([N+](=O)[O-])cc2)s1 | i | 0.71
COc1ccc(CN(C)CC(=O)NC(=O)NCc2ccccc2)cc1OC | i | 1.7
CCc1ccc[n+](-c2nc([O-])sc2C=O)c1 | i | 0.75
CCn1c(SCC(=O)C(C)(C)C)nnc1-c1ccccc1OC | i | -0.07
CCOC(=O)c1oc2ccccc2c1NC(=O)CCl | i | 2.8
CCOc1cc(N2CCOCC2)c(OCC)cc1NC(=O)c1ccc(C)cc1 | i | -1
O=C1CC(c2ccccc2)CC(O)=C1C=NCc1ccc(Cl)c(Cl)c1 (stereo not given) | i | 0.59
CCC1(C)Cc2nc3sc(C(=O)O)c(N)c3cc2CO1 (stereo not given) | i | 1.8
Cc1ccc2nc3c(cc(C(=O)NC4CCCC4)c(=N)n3CCCn3ccnc3)c(=O)n2c1 | i | 5
CCOC(=O)N1CCN(c2cc(=O)n(-c3ccccc3Cl)c(=O)[nH]2)CC1 | i | -0.1
O=C1/C(=C/c2ccccc2)CCC1C1CCCC1 (stereo not given) | i | 0.29
COc1ccc(F)cc1C(=O)C1CCCN(C(=O)c2ccc(C(C)=O)s2)C1 (stereo not given) | i | -0.38
CC1CN(Cc2nc3c(c(=O)n(C)c(=O)n3C)n2Cc2ccccc2)CC(C)O1 (stereo not given) | i | 0.92
CCc1ccc(NC(=O)CSc2nc(=O)n(CCCN3CCOCC3)c3c2CCC3)cc1 | i | 3.2
CCOc1ccc(CN2CCN(Cc3cnc(-c4ccccc4)s3)CC2CCO)cc1 (stereo not given) | i | -0.42
O=C(OC(C(=O)NCC1CCCO1)c1ccccn1)c1cccs1 (stereo not given) | i | 0.45
COC(=O)CCN(C(=O)c1ccc(OC(C)=O)cc1)c1ccccn1 | i | -3.1
CCCC1c2ccc(C)n2CCN1C(=O)Nc1ccc(F)cc1 (stereo not given) | i | 1.1
CCn1c(CC(=O)Nc2cccc(OC)c2)nnc1SCC(=O)N1CCN(c2ccccc2)CC1 | i | -0.12
CC1CCN(C(=O)COc2cccc3c2CCN(Cc2ccccc2)C3=O)CC1 | i | -2.8
CC(C)CCN1C(=O)c2cccc3c(N)ccc(c23)C1=O | i | 58
CC1CC(C)(C)Nc2ccc(OC(=O)c3ccco3)cc21 (stereo not given) | i | 0.72
CC1(C(=O)Nc2nnc(C(C)(C)C)s2)Cc2ccccc2C(=O)O1 (stereo not given) | i | -0.02

Next section.
Results follow in this order: KCNQ2 inh | KCNQ2 inh baseline
> Cc1oc(S(=O)(=O)N2CCCCC2)cc1NC(=O)Nc1ccccc1
  i | 0.75
> O=C(N/N=C/c1ccc(-c2cccc([N+](=O)[O-])c2)o1)[C@H]1C[C@@H]1c1ccccc1
  i | -0.19
> CSCCC(NC(=O)c1ccccc1Br)C(=O)NCCCn1nc(C)cc1C (stereo not given)
  i | 0.1
> CCOC(=O)Cc1csc(NC(=O)CS(=O)(=O)Cc2ccccc2)n1
  i | -0.02
> COc1ccc(C(=O)/C=C/c2ccc(N3CCCCC3)c([N+](=O)[O-])c2)cc1
  i | -2
> C=CCOC(=O)C(C#N)c1nc2ccccc2nc1N1CCCC1 (stereo not given)
  i | -0.09
> CCSc1nnc(NC(=O)C2CC2c2ccccc2)s1 (stereo not given)
  i | 0.17
> COCCN=C1Sc2nc3cc4c(cc3cc2CN1CC1CCCO1)OCO4 (stereo not given)
  i | 0.85
> Cc1ccc(S(=O)(=O)Nc2cc(C(=O)NCCN(C)C)ccc2N2CCCC2)cc1
  i | 2.4
> O=C(O)COc1ccc(S(=O)(=O)c2ccc(OCC(=O)O)cc2)cc1
  i | 1.2
> CCc1cc2c(=O)c(-c3ccc4c(c3)OCO4)coc2c(CN(C)C)c1O
  i | -0.49
> C=CCN1CCN(c2ccncc2S(=O)(=O)N2CCCCC2)CC1
  i | 0.27
> CC(Oc1cccc(Cl)c1)C(=O)Nc1cc(S(=O)(=O)N2CCOCC2)ccc1N1CCCC1 (stereo not given)
  i | -0.06
> Cc1ccc(NC(=O)COC(=O)c2cc(Cl)ccc2Cl)c(Br)c1
  i | -0.2
> COc1ccc(Nc2nc(C)nc3c2oc2ccccc23)c(OC)c1
  i | -1.6
> COc1c(F)c(F)c(C(=O)O)c(Nc2cccc(C)c2)c1F
  i | -1.6
> CCC(=O)NC(c1ccc(Cl)cc1Cl)c1ccc2cccnc2c1O (stereo not given)
  i | 1.6
> CC1(C)CC(=O)c2cnc3c(C#N)cnn3c2C1
  i | 0.7
> Cc1cc(NC(=O)CSc2nnc(CNC(=O)c3ccc(F)cc3)o2)no1
  i | 1.2
> CC(=O)NC1C(Oc2ccc(C)cc2)OC2COC(c3ccco3)OC2C1O (stereo not given)
  i | 0.12
> O=C(NCC1CCCCC1)c1ccccc1[N+](=O)[O-]
  i | 0.05
> COc1ccc(/C=C/C(=O)Nc2sc3c(c2C(=O)NCc2cccnc2)CCCC3)cc1
  i | -0.26
> Cn1c(C2CCCCC2)nc2cc(N)ccc21
  i | 0.39
> CC(C)(C)C(=O)NCCN1C(=O)S/C(=C\c2ccc([N+](=O)[O-])cc2)C1=O
  i | -1.5
> COCc1c(C(=O)N/N=C\c2ccccn2)nnn1-c1nonc1N
  i | -2.3
> O=C(Nc1c(C(=O)N2CCOCC2)oc2ccccc12)c1ccccc1Cl
  i | -0.82
> Cc1nnn(C23CC4CC(CC(CC(=O)Nc5ccc(C)c(C)c5)(C4)C2)C3)n1
  i | -0.12
> Cc1ccccc1N=Nc1c(O)n(C)c2ccccc12
  i | -1.4
> COc1ccccc1C1CCN(C(=S)Nc2ccc(Br)cc2)CC1
  i | -1.8
> Cc1ccc2c(c1)c1nc3ccccc3nc1n2CCN1CCOCC1
  i | 0.08
> O=C(O)CCc1ccc(NCc2cccc(Oc3ccccc3)c2)cc1
  i | -0.39
> Cc1cc(C)c([N+](=O)[O-])cc1-c1ccc(/C=N/c2c(-c3ccco3)nc3ccccn23)o1
  i | 1.7
> O=C(NCCc1cccc(Cl)c1)c1cccs1
  i | -3
> C=CCn1ccc(O)c(Cc2ccc(Cl)cc2)c1=O
  i | -0.27
> Cc1ccc(NC(=O)NC(=O)COc2ccc(Cl)cc2Cl)c(C)c1
  i | -1.1
> CC(C)(C)c1csc(NC(=O)CCc2ccccc2)n1
  i | -0.07
> O=C(NN1C(=O)C2C(C1=O)C1C=CC2C12CC2)c1cccc(Cl)c1 (stereo not given)
  i | 0.85
> O=c1oc2c(Cl)cc(Cl)cc2cc1-c1nnc(Nc2ccccc2F)s1
  i | 0.97
> Cc1ccc2nc(SCC(=O)N3CCN(c4ccccc4)CC3)nc(=O)n2c1
  i | 0.8
> Cc1ccc(S(=O)(=O)NNC(=O)c2ccc3ccccc3n2)cc1
  i | 0.17
> COCc1cc(Sc2ccc(Cl)cc2Cl)nc(-c2ccccc2)n1
  i | 1.1
> COc1ccccc1C1CC(c2ccccc2)=NN1C(=O)c1ccccc1 (stereo not given)
  i | -0.56
> C=CC[n+]1cccc(-c2cc3ccc(C)cc3[nH]2)c1
  i | 1.1
> Cc1c(CCC(=O)N2CCC(C(=O)NCCCCCC(=O)O)CC2)c(=O)oc2cc3oc4c(c3cc12)CCCC4
  i | -1.2
> O=C(CCc1c[nH]c2ccccc12)N1CCCCCCC1
  i | -1.2
> CCn1c(SCC(=O)Nc2ccc3c(c2)c2ccccc2n3CC)nnc1-c1ccco1
  i | 0.27
> Cc1cccc(NC(=O)CSc2nc3ccccc3nc2N2CC(C)OC(C)C2)c1 (stereo not given)
  i | -0.19
> COc1ccc(/C=N/Nc2nc(-c3ccc(C)cc3)c(NC(C)=O)s2)cc1
  i | -1.6
> O=C(O)CNS(=O)(=O)c1ccc(F)cc1
  i | -1.2
> CC(C)=CC(=O)OCC(=O)Nc1ccccc1Cl
  i | 2.5
> COc1cccc(C2CC(c3cccc(Br)c3)n3ncnc3N2)c1 (stereo not given)
  i | 0.23
> COc1ccc(NC(=O)CSc2nc(C3CC3)nc3ccccc23)c(OC)c1
  i | -0.91
> N#CC1=C(N)Oc2ccc3ccc(O)cc3c2C1c1ccsc1 (stereo not given)
  i | 3.7
> CCCCn1nc2cc(C(=O)NCC34CC5CC(CC(C5)C3)C4)ccc2c1OCC
  i | -0.35
> COc1ccc(-c2cccc(C(=O)Nc3ccccc3C)c2)cc1
  i | -0.04
> CCCN1C2CCCC1CC(NC(=O)Nc1ccc(C(C)C)cc1)C2 (stereo not given)
  i | 1.9
> NC(=O)c1ccccc1NC(=O)/C=C/c1c(Cl)cccc1Cl
  i | 0.71
> COC(=O)C(Cc1ccc(O)cc1)NC(=O)c1ccccc1OC (stereo not given)
  i | 3.1
> Cc1cccc(C)c1NC(=O)C(c1ccc([N+](=O)[O-])cc1)N(C)C(=O)c1ccccn1 (stereo not given)
  i | -0.02
> Cc1ccc(-c2csc(N3CCC[C@@H]3C(=O)NCCn3c(-c4ccncc4)nc4ccccc43)n2)cc1
  i | 0.09
> CC1=C(C)CC2(SC1)C(=O)N(c1ccccc1)N=C2N (stereo not given)
  i | -3
> Cc1cc(C)c2nc(N3CCC(C(=O)NCCCN4CCCCC4)CC3)sc2c1
  -6.5* | 0.91*
> COc1ccc(OCC(=O)Nc2cccc3ncccc23)cc1
  i | -0.04

Random excerpt: two compounds from above, in no set order.
Results follow in this order: KCNQ2 inh | KCNQ2 inh baseline
> Cc1cccc(C)c1NC(=O)C(c1ccc([N+](=O)[O-])cc1)N(C)C(=O)c1ccccn1 (stereo not given)
  i | -0.02
> O=C(O)CCc1ccc(NCc2cccc(Oc3ccccc3)c2)cc1
  i | -0.39

Bioassay records from PubChem BioAssay.
